Screens from PubChem BioAssay.
NR1D1 modulator: modulates human Rev-erb alpha binding to DNA. Rev-erbα–FITC-DNA binding, fluorescence polarization, 90 min. hit rate 0.79% among 370,000. P20393. activity, % at 10 µM;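 active = activity above about 14%, limit read from the data; passing the limit was not always enough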;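 also: 0% = DMSO wells with 35 nM protein and 100% = DMSO wells with 750 nM protein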
TDP2 absorb: TDP2 (human) inhibition, absorbance primary screen | hit rate 0.34% among 370,000 | recombinant TDP2, T5PNP hydrolysis, p-nitrophenol absorbance 415 nm | O95551 | AID 720702 | inhibition, % at 12.8 µM;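 active = inhibition above the mean of all tested compounds plus 3 SD, set per campaign, cut at about 25% in these data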;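 also: 0% = DMSO with enzyme and 100% = buffer with substrate but no TDP2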
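System – recombinant human TDP2 · Amount – 120 nM TDP2 per well · Buffer or medium – Mg2+-containing Tris-HCl buffer, pH 7.5 · Reagent – T5PNP substrate, 5 mM · Dosing – 12.8 µM single point, 1% DMSO · Incubation – 2 h at 37 °C · Measured by – epi absorbance · Read-out basis – percent inhibition · Benchmarks – high control without enzyme, low control DMSO plus TDP2 · Repeats – singlicate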
LEDGF integ inh: blocks HIV-1 LEDGF/p75-dependent DNA integration; inhibition, % at 3.7 µM; hit rate 0.64% among 370,000; TR-FRET IN-LEDGF/p75 DNA integration, Eu/Cy5;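 active = inhibition above the screen-wide mean plus 3 SD, cut at about 13% in these data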;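 also: signal is the Cy5 over europium emission ratio at 671 and 618 nm; 0% = plate median of compound wells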
SIAE inh: blocks human sialic acid acetylesterase. inhibition, % at 9.66 µM. hit rate 0.69% among 370,000. SIAE FP-Rh probe binding, fluorescence polarization. Q9HAT2;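 active = inhibition above a cutoff: mean of compounds within the control limits plus 3 SD of those, cut at about 17% in these data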;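 also: 0% = plate median of compound wells and 100% = probe without SIAE protein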
Target sequence (Q9HAT2 whole entry, looked up): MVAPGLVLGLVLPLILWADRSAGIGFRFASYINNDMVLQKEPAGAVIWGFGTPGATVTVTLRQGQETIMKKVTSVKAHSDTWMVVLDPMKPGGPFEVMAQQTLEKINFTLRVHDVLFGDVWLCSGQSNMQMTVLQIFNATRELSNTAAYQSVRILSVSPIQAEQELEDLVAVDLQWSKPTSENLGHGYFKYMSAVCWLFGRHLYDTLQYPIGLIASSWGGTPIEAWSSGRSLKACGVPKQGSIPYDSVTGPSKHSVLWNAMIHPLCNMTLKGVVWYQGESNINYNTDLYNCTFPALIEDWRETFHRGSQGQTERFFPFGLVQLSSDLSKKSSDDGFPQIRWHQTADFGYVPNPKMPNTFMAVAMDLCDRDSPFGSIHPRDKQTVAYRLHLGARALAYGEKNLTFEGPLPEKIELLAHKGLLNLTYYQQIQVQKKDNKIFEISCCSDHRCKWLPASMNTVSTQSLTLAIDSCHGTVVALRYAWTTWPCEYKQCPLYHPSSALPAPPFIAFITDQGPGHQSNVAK
rCAG binder: r(CAG) repeat RNA binding; hit rate 1.3% among 370,000; TO-PRO-1 dye displacement fluorescence; inhibition, % at 3 µM; AID 651821;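 active = inhibition above the plate cutoff, the mean of all test compounds on that plate plus 3 SD, cut at about 35% in these data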;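 also: 0% = DMSO alone and 100% = 100 µM mitoxantrone as full dye displacement; higher means more dye released from RNA so lower well fluorescence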
PG9 binder: small molecules binding HIV-1 gp120 antibody PG9 | TR-FRET gp120-PG9 antibody binding | inhibition, % at 6.7 µM | hit rate 0.43% among 360,000; in the data active = inhibition above about 8.5%
mABHD4 FP: inhibits mouse alpha/beta hydrolase domain 4 | Q8VD66 | purified mABHD4, FP-Rh probe fluorescence polarization | inhibition, % at 8.92 µM | hit rate 0.54% among 370,000;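 active = inhibition exceeding the mean over every tested compound plus 3 SD, cut at about 30% in these data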;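 also: 0% = plate median of compound wells and 100% = S159A mutant with DMSO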
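Test system: mABHD4 protein; Read-out basis: % inhibition; Incubation: 45 min + 60 min at 25 °C; Repeats: single replicate; Technique: fluorescence polarization with parallel and perpendicular emission, 525/598 nm; Compound: 8.92 µM, single dose; Benchmarks: full inhibition S159A mutant plus DMSO, zero as sample-well median.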
TCR-CD3 inh: blocks the human TCR-CD3 interaction; TAMRA-labeled TCR probe fluorescence, biochemical; inhibition, % at 9.4 µM; hit rate 0.37% among 360,000; AID 651800; in the data active = inhibition above about 19%;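 also: recombinant mutant TCR 2C K166C tagged with TAMRA read by polarization; 0% = receptor in buffer alone and 100% = receptor with positive control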
PRMT1 inh: inhibitors of human PRMT1; inhibition, % at 2.79 µM; Q99873; AID 652257; hit rate 1.3% among 370,000; recombinant PRMT1, activity-based probe fluorescence polarization;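 active = inhibition above about 21% made by adding two undisclosed values, limit read from the data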
Target sequence (Q99873 whole entry, looked up): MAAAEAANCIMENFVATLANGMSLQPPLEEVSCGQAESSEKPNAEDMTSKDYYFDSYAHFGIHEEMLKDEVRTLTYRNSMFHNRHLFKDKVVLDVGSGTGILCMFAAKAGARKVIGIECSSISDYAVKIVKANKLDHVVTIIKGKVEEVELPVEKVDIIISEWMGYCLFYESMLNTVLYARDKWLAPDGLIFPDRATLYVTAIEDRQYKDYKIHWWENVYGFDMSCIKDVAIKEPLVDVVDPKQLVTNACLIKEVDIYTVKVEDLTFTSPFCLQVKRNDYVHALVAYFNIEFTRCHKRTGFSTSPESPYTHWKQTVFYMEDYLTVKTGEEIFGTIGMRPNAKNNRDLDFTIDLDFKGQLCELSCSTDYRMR
Active calls of the source: *. These rows are one share of the data; the hit share may differ from the screen's.

No.	mol	NR1D1 modulator	TDP2 absorb	LEDGF integ inh	SIAE inh	rCAG binder	PG9 binder	mABHD4 FP	TCR-CD3 inh	PRMT1 inh
1	CC1CCCN(C(=O)COC(=O)Cc2c(F)cccc2Cl)C1 (centres undefined)	-5	22	3	4	-2	1.2	-3	-4	-1
2	COc1cc(C(=O)NCc2cccc3ccccc23)ccc1OCc1ccccc1	3	6	3	-6	4	0.7	-24	-1	-1
3	CCCCN(CCCC)CCCN1CC(=O)N2[C@@H](Cc3c([nH]c4ccccc34)C2(C)C)C1=O	-1	-6	-1	-3	-13	1.3	-2	-8	3
4	O=C(Oc1ccc(Cl)c2cccnc12)c1cccc([N+](=O)[O-])c1	2	9	-3	14	1	0.1	13	-1	7
5	COC(=O)Sc1nc(N2CCOCC2)c2c(c1C#N)CC(C)(C)OC2	-2	5	0	4	-7	1.4	-2	-3	5
6	CCOC(=O)c1c(C)[nH]c(C)c1C(=O)COC(=O)c1cccnc1OCC	-2	-4	1	-3	4	-0.3	9	5	-1
7	CCOC(=O)c1c(N)nn(C(=O)C(C)C)c1-c1ccc(OC)cc1	6	5	2	-3	-7	-1.1	-1	-1	-1
8	CC1CCC2C(=O)N(c3ccc(C(=O)Oc4cccc5cccnc45)cc3)C(=O)C2C1 (centres undefined)	-2	10	-3	10	-1	0.7	8	-2	3

No.	mol	NR1D1 modulator	TDP2 absorb	LEDGF integ inh	SIAE inh	rCAG binder	PG9 binder	mABHD4 FP	TCR-CD3 inh	PRMT1 inh
9	CCc1nnc(NC(=O)C2(C)COC(c3ccc(OC)cc3)OC2)s1 (centres undefined)	3	3	1	-5	-6	-1.4	-2	-1	-9
10	N#CC(CCc1ccccc1[N+](=O)[O-])(CCc1ccccc1[N+](=O)[O-])C(N)=O	1	-7	1	-3	0	0.6	-3	-2	-1
11	C=CCN1CCOc2ccc(C)cc2S1(=O)=O	0	4	1	-8	1	-1.3	1	-6	1
12	CCC(C)c1ccccc1OCCCNC1CCCC1 (centres undefined)	4	-9	-1	0	12	-1.0	11	4	-2
13	Cc1ccc(-c2nc(C(=O)NC3CCCCCC3)no2)cc1	-4	1	-4	13	1	-2.8	-3	7	-3
14	O=C(NNC(=O)c1ccco1)c1ccco1	1	5	4	3	1	1.3	3	7	-6
15	C=CCn1c(CCNC(=O)c2cccs2)nnc1SCC(=O)c1ccc(Cl)cc1	4	-6	3	3	6	-1.5	-1	1	2
16	S=c1[nH]nc(-c2ccccc2Cl)n1Cc1ccccc1	1	3	-3	4	1	-0.4	0	-3	4

Quoted at random: two entries already listed.
No.	mol	NR1D1 modulator	TDP2 absorb	LEDGF integ inh	SIAE inh	rCAG binder	PG9 binder	mABHD4 FP	TCR-CD3 inh	PRMT1 inh
13	Cc1ccc(-c2nc(C(=O)NC3CCCCCC3)no2)cc1	-4	1	-4	13	1	-2.8	-3	7	-3
2	COc1cc(C(=O)NCc2cccc3ccccc23)ccc1OCc1ccccc1	3	6	3	-6	4	0.7	-24	-1	-1

(continued)
No.	mol	NR1D1 modulator	TDP2 absorb	LEDGF integ inh	SIAE inh	rCAG binder	PG9 binder	mABHD4 FP	TCR-CD3 inh	PRMT1 inh
17	c1cc(-c2nnc(-c3ccncc3)o2)ccn1	3	-4	4	6	3	-0.5	-1	-2	1
18	CCOC(=O)C1=C(C)Nc2nnnn2C1c1cccnc1 (centres undefined)	-2	13	3	-4	2	1.6	2	2	3
19	CCOc1cccc(-c2c(C(=O)N/N=C/c3ccc(C)s3)nnn2-c2nonc2N)c1	-2	-7	5	-3	11	-2.0	-22	-5	-3
20	Cc1cccc(C(=O)NNC(=O)c2ccccc2Br)c1	1	5	-2	0	-2	-0.1	4	-8	1
21	CCOC(=O)c1c(N)nn(C(=O)C(C)C)c1-c1ccccc1	3	6	-2	-3	-6	0.9	0	2	2
22	O=C1OC(c2ccccc2)(c2ccccc2)c2ccsc21	23*	7	6	-5	3	-1.9	-8	2	-2
23	CSc1nc(-c2ccco2)nn1C(=O)c1ccccc1Cl	-12	10	2	6	0	-0.7	1	-2	-1
24	O=C1CC(C(=O)N2CCCc3ccccc32)CN1c1ccc(Cl)cc1 (centres undefined)	7	0	5	0	2	2.6	-1	2	2

An excerpt from above in order of molecular weight, low to high:
No.	mol	NR1D1 modulator	TDP2 absorb	LEDGF integ inh	SIAE inh	rCAG binder	PG9 binder	mABHD4 FP	TCR-CD3 inh	PRMT1 inh
17	c1cc(-c2nnc(-c3ccncc3)o2)ccn1	3	-4	4	6	3	-0.5	-1	-2	1
18	CCOC(=O)C1=C(C)Nc2nnnn2C1c1cccnc1 (centres undefined)	-2	13	3	-4	2	1.6	2	2	3
21	CCOC(=O)c1c(N)nn(C(=O)C(C)C)c1-c1ccccc1	3	6	-2	-3	-6	0.9	0	2	2
16	S=c1[nH]nc(-c2ccccc2Cl)n1Cc1ccccc1	1	3	-3	4	1	-0.4	0	-3	4
23	CSc1nc(-c2ccco2)nn1C(=O)c1ccccc1Cl	-12	10	2	6	0	-0.7	1	-2	-1
20	Cc1cccc(C(=O)NNC(=O)c2ccccc2Br)c1	1	5	-2	0	-2	-0.1	4	-8	1

Next part:
No.	mol	NR1D1 modulator	TDP2 absorb	LEDGF integ inh	SIAE inh	rCAG binder	PG9 binder	mABHD4 FP	TCR-CD3 inh	PRMT1 inh
25	CCn1c(NN)nc2sc3c(c2c1=O)CCC3	-6	5	0	5	8	-0.3	0	0	3
26	CC1=C(C(N)=O)C(c2cccc(OCc3ccccc3)c2)n2nnnc2N1 (centres undefined)	-3	1	1	-3	4	-0.8	-4	3	-1
27	CC(C(=O)N1CCOCC1)N1C(=O)c2ccccc2C1=O (centres undefined)	-4	10	-2	-3	2	0.3	-4	-1	0
28	Cc1ccn2c(-c3csc(NCc4ccccc4)n3)c(C)nc2c1	-4	-10	0	8	0	0.2	14	-1	3
29	CCCCCC/C(=N/O)c1ccccn1	5	-9	2	1	-4	0.8	-42	-9	4
30	COc1ccccc1CN(C)C(=O)C1(c2ccc(Cl)cc2)CC1	2	9	0	16	-9	-1.4	-5	7	-2
31	O=S(=O)(CCc1nnc(-c2ccc(Br)cc2)o1)c1ccc(Cl)cc1	2	1	-1	7	1	0.7	4	7	-3
32	COc1ccc(N2C3=C(CC4=C2CC(C)(C)CC4=O)C(=O)CC(C)(C)C3)cc1	4	13	0	2	-1	-3.4	1	-1	23*

Every second line gives: NR1D1 modulator, TDP2 absorb, LEDGF integ inh, SIAE inh, rCAG binder, PG9 binder, mABHD4 FP, TCR-CD3 inh, PRMT1 inh
33) Cc1sc2ncn(CC(=O)NCCCC(=O)N3CCC(C(N)=O)CC3)c(=O)c2c1C
  -7, -2, -5, -6, 1, -1.3, 4, -3, -2
34) COc1ccc2cc3cc(C(=O)NCCCN4CCc5ccccc5C4)sc3nc2c1
  -3, 6, -3, -1, -1, 1.0, 12, -7, 2
35) O=C(N/N=C/c1cc(Br)c(Br)s1)c1ccncc1
  -2, -10, 5, 7, 1, -5.2, 2, 0, -4
36) CC(=O)Nc1c(O)nc(SCC(=O)Nc2sc3c(c2C#N)CCCCCC3)[nH]c1=O
  4, 5, 6, -3, 24, 2.4, 14, 2, 15
37) S=c1[nH]ncn2c1cc1oc3ccccc3c12
  34*, -6, 3, 0, 2, 8.2, -3, -7, -2
38) O=C(NCC1CCCCC1)c1ccco1
  -1, 8, 0, -2, -1, -1.8, -5, -3, -4
39) COc1ccc(-c2cc(C(F)(F)F)nc(NC3CCCC3)n2)cc1OC
  4, -1, -3, -13, -2, -0.7, -9, 5, -2
40) Cc1ccc(NC(=S)NNC(=O)c2ccccc2O)c(C)c1
  -3, -10, -8, 6, 13, -1.5, 7, 41*, 3
41) CCCC1CC(C)(C(=O)CSc2n[nH]c(-c3ccccc3)n2)OC1=O (centres undefined)
  -1, -4, 2, -4, 12, -0.8, -15, -1, 3
42) O=S(=O)(Nc1nc2ccccc2nc1NCc1ccco1)c1cccs1
  -3, -6, -1, -1, 27, -2.3, 3, 3, -1
43) O=C(NC(=S)Nc1ccccc1N1CCN(C(=O)c2ccccc2)CC1)c1ccccc1F
  -5, -13, -4, -7, -3, -1.4, 6, -6, 1
44) O=C(Cc1ccccc1)Nc1ccc(Br)c(Cl)c1
  -5, 0, 2, 7, 1, -1.4, -23, 1, -1
45) CC(C)CCN1CC(=O)N2[C@@H](Cc3c([nH]c4ccccc34)C2(C)C)C1=O
  -6, -1, 0, 6, -7, -0.8, 1, -2, -3
46) COc1cccc(/C=C2/Sc3ccc(C(=O)NCCN4CCCCCC4)cc3NC2=O)c1
  3, 1, -3, -32, 19, -4.5, 0, -2, -1
47) CCCCCN1CC(=O)N2[C@@H](Cc3c([nH]c4ccccc34)C2(C)C)C1=O
  0, 2, 4, 1, -6, -0.4, 5, 5, -3
48) O=C(Nc1cccc(F)c1)/C(=C\c1cccnc1)NC(=O)c1ccco1
  -3, -5, -2, -8, 0, 0.4, 2, -3, 5
49) C/C(=C\C(=O)c1ccccc1)Nc1cccc(O)c1
  -2, 9, 0, 9, 3, -0.9, -3, 6, 2
50) CC(=O)c1ccc(NC(=O)c2cnsn2)cc1
  3, -1, -3, -4, -1, 0.0, 6, -4, 4
51) COc1cnc(-c2ccccn2)nc1Sc1c(Cl)cccc1Cl
  12, 5, 9, 13, -1, -3.0, -3, 7, -2
52) CC(=O)c1ccc(NC(=O)c2ccc(N3C(=O)c4cccnc4C3=O)cc2)cc1
  -12, 9, 0, 0, -3, -1.1, 5, 5, -1

Every second line gives: NR1D1 modulator, TDP2 absorb, LEDGF integ inh, SIAE inh, rCAG binder, PG9 binder, mABHD4 FP, TCR-CD3 inh, PRMT1 inh
53) Cc1noc(C)c1S(=O)(=O)Nc1cccc(C(F)(F)F)c1
  -3, -2, 1, 7, 4, -2.5, -8, 4, -3
54) CC1=C(C(=O)Nc2ccccc2)C(c2cccnc2)n2nc(-c3cccnc3)nc2N1 (centres undefined)
  6, 8, 4, 5, -2, -0.2, -1, 5, -1
55) COC(=O)C1=C(C)Nc2nnnn2C1c1cccnc1 (centres undefined)
  0, 0, -2, -2, 2, -2.6, -1, 7, 2
56) Cc1cc(C)c(S(=O)(=O)Nc2cccc(S(=O)(=O)N3CCOCC3)c2)c(C)c1
  2, -13, 2, 0, 8, 1.5, -7, -5, -4
57) C=CCn1c(SCCOc2ccc(OC)cc2)nnc1C(CO)NC(=O)c1ccc(OC)cc1 (centres undefined)
  6, 0, 1, 3, -8, 3.7, 0, 1, -3
58) Cc1cc(C)cc(Oc2coc3cc(OC(=O)c4cccs4)ccc3c2=O)c1
  3, -2, -1, -8, 6, 1.3, -9, 5, -1
59) O=C(O)COCC(=O)Nc1ccc(OCCc2ccccc2)cc1
  -2, -17, 2, 1, 4, -1.7, -5, -3, 2
60) CC1CCCC(NC(=O)CSc2nnc(C(F)(F)F)n2C)C1C (centres undefined)
  -9, 13, 0, 2, 0, 1.4, -8, 1, -1
61) COc1ccc(OC(=O)Cc2cccc3ccccc23)cc1
  -6, -8, -5, 3, 2, -3.0, -1, -2, 3
62) COc1ccc(C(=O)COC(=O)[C@H](C)NS(=O)(=O)c2ccc(NC(C)=O)cc2)cc1OC
  -4, 5, -2, 4, 3, 0.3, 2, -2, -2
63) O=C(Cc1c(Cl)cccc1Cl)OCC(=O)N1CCOCC1
  6, 9, -3, 2, 0, -1.2, 3, 1, 2
